High-throughput results as filed in PubChem.
VDR inhibitor: vitamin D3 receptor (human) inhibition. P11473. VDR-SRC2-3 peptide fluorescence polarization, 2 h. Potency, µM, for inactives: max response, negative = inhibition, usual class: inhibitors. hit rate 0.93% among 400,000. AID 504847; active = well fitted inhibition curve with a large enough effect; inconclusive = small, poorly fitted or top-dose-only effect, or another doubt; inactive = no such curve, though single readings can be large or run the other way; note: series mostly up to about 120 µM
Target sequence (P11473 whole entry, looked up): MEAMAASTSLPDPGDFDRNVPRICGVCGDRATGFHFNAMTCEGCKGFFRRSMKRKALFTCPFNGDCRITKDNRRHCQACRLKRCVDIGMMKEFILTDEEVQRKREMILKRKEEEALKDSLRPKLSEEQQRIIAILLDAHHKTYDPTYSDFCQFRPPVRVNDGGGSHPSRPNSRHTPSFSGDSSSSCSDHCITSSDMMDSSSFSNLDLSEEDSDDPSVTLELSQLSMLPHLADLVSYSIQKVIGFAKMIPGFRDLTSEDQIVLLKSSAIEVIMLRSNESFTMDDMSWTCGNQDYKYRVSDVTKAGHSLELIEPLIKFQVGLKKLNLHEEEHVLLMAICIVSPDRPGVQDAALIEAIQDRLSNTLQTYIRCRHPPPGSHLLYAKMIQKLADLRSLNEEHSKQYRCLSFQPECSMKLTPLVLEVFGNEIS
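VDR–SRC2-3 interaction, FP format. Cmpds 23 nl via pintool, brief spin, 2 h ambient incubation.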
Active calls of the source: *; u = inconclusive; & = joins results of further samples. % is set by controls: 0 for no effect and ±100 for the full control effect; potency is the fitted concentration of half-maximal effect. The list is partial; rates above refer to the full screens.

Molecule | VDR inhibitor
C=CCn1c(=O)c2ccccc2n2c(SCc3csc(-c4ccccc4)n3)nnc12 | -16.3%
Cc1cc(C)c2nc(N3CCC(C(=O)NCCCN4CC(C)CC(C)C4)CC3)sc2c1 (stereo unspecified) | -8.8%
COc1ccc(C(=O)Nc2ccc(N3CCN(C)CC3)cc2)cc1[N+](=O)[O-] | -2.7%
COc1ccc(/C=N/OCc2ccccc2C#N)c(OC)c1 | -18.1%
Cc1cccc2[nH]c(CN(C)C(=O)CC3C(=O)NCCN3CC(C)(C)C)nc12 (stereo unspecified) | 1.8%
Cc1cc(NC(=O)c2ccccc2-c2ccccc2)ccc1Br | -24.6%
O=C(COC(=O)COc1ccc(Br)cc1)Nc1ccc2c(c1)OCCO2 | -7.7%
CC(=O)Nc1ccccc1NS(=O)(=O)c1ccc(Cl)cc1 | -6.2%
COc1cccc2cc(C(=O)Nc3ccc(F)cc3)c(=Nc3ccc(C(=O)O)cc3)oc12 | 9.9%
CCn1c(CC(=O)Nc2ccccc2)nnc1SCC(=O)NC1CCCC1 | -5.4%
CCn1c(C)[n+](CC)c2ccc(C(=O)N(C)c3ccccc3)cc21 | 0.3%
Cc1cc(C)cc(NC(=O)Nc2cccs2)c1 | -14.6%
COc1ccc(/C=C/C(=O)NCCc2c[nH]c3ccccc23)cc1OC | -9.6%
COc1ccc2c(c1)C=C(C(=O)NCc1cc(Br)ccc1OC)CO2 | 8.9%
CC1(C)CC(=O)c2cc(C(=O)NC3CCSC3=O)c(=O)n(-c3ccc(Cl)cc3)c2C1 (stereo unspecified) | -4.7%
CCC(=O)Nc1ccc2nn(-c3ccc(F)cc3)nc2c1 | -2.9%
COC(=O)c1ccccc1-c1cn(C)c2ccccc2c1=O | 9.8%
COc1ccc(CNC(=O)C2CCN(S(=O)(=O)N3CCOCC3)CC2)cc1 | 5.4%
COc1ccc(Cn2c(=O)[nH]c3cc(C(=O)NCCCN4CCCC4=O)ccc3c2=O)cc1 | 27.7%
C[N+](C)(C)CC/C=C1/c2ccccc2CSc2ccccc21 | 4.8%
c1ccc(-c2nnc(-c3ccco3)o2)cc1 | 6.6%
Cc1ccc(S(=O)(=O)N(CC(=O)N/N=C/c2cccc3c2OCCO3)c2ccccc2F)cc1 | 6.4%
COc1ccc(Cn2c(C(=O)O)c(CNCc3ccco3)c3ccc(OC)cc32)cc1 | -6.7%
Cc1ccc2oc(C(=O)Nc3sc4c(c3C(=O)NCc3ccco3)CCC4)cc(=O)c2c1 | 21.6%

A second format for part of the listing above:
COC(=O)c1ccccc1-c1cn(C)c2ccccc2c1=O
  VDR inhibitor: 9.8%

COc1ccc(CNC(=O)C2CCN(S(=O)(=O)N3CCOCC3)CC2)cc1
  VDR inhibitor: 5.4%

COc1ccc(Cn2c(=O)[nH]c3cc(C(=O)NCCCN4CCCC4=O)ccc3c2=O)cc1
  VDR inhibitor: 27.7%

C[N+](C)(C)CC/C=C1/c2ccccc2CSc2ccccc21
  VDR inhibitor: 4.8%

More entries:
Molecule | VDR inhibitor
Cn1c(=O)c(Sc2ccc(Cl)cc2)c(O)c2ccccc21 | 0.1%
O=C(CN(c1ccc(F)cc1)S(=O)(=O)c1ccc2c(c1)OCCO2)NCc1cccnc1 | -2.3%
COc1ccc(CCn2c(NN=C3CCCCC3)nc3c2c(=O)[nH]c(=O)n3C)cc1 | 4.7%
CCOC(=O)N1CCC(NC(=O)c2cnn(-c3cccc(Cl)c3C)c2C2CCN(C(=O)OC(C)(C)C)CC2)CC1 | -10.1%
Cc1ccc2oc(C(=O)N3CCC(O)(c4ccccc4)CC3)c(C)c2c1 | 0.1%
CC1CCCN(S(=O)(=O)c2cccc(C(=O)NCC3CCCO3)c2)C1 (stereo unspecified) | u
COc1ccc(CNC(=O)c2cnc(C)cn2)cc1 | 7.3%
O=c1c(-c2ccccc2)nc2cnc(Oc3cccc(Cl)c3)nc2n1C[C@H]1CCCO1 | -2.2%
O=C(NC(=S)Nc1ccc(O)cc1)c1cncc(Br)c1 | -5.5%
O=C(CCn1c(=O)sc2ccccc21)NCCN1CCOCC1 | 3.8%
O=C(CC1C(=O)NCCN1Cc1cccc(C(F)(F)F)c1)NC1CCOCC1 (stereo unspecified) | -14.8%
O=C(C1CCC1)N1CCc2cc(S(=O)(=O)N3CCCCC3)ccc21 | 2.0%
CN(Cc1cnn(C)c1)C(=O)CC1C(=O)NCCN1Cc1cccc(Oc2ccccc2)c1 (stereo unspecified) | 3.4%
COc1ccc(CCNc2oc(-c3ccc(OC)c(OC)c3)nc2P(=O)(OC)OC)cc1OC | -17.8%
Cc1ccc(NC(=O)c2cccc(NC(=O)CCC(=O)O)c2)cc1C | 5.0%
Cc1ccc(NC(=O)CSCC(=O)OCc2cc(=O)oc3cc(O)ccc23)c(C)c1 | 11.8%
CCn1nnc2cc(C(=O)Nc3cc(Cl)ccc3C)ccc21 | -7.2%
COc1ccc2[nH]c(=O)c(CN(Cc3ccccc3)Cc3nnnn3CC3CCCO3)cc2c1 (stereo unspecified) | 16.1%
O=C(N/N=C/c1ccc(N2CCOCC2)s1)c1ccccc1Br | -8.9%
CN(Cc1ccccc1)C(=O)CN1CCN(C(c2ccccc2)c2ccccc2)CC1 | -3.7%
Cn1cnnc1SC1c2cccc3cccc(c23)C1NS(=O)(=O)c1ccccc1 (stereo unspecified) | -20.3%
COc1ccccc1NC(=O)Cn1cnc2sc(C(=O)Nc3cc(OC)c(OC)c(OC)c3)c(C)c2c1=O | 6.6%
Cc1ccc2[nH]cc(C(=O)CCl)c2c1 | -22.9%
COc1ccc(C(O)C2=CCCC2=O)cc1 (stereo unspecified) | -4.1%&7.0%

Brought forward from above: 2 entries, followed by the next part.
Molecule | VDR inhibitor
Cc1ccc2[nH]cc(C(=O)CCl)c2c1 | -22.9%
COc1ccc(C(O)C2=CCCC2=O)cc1 (stereo unspecified) | -4.1%&7.0%
Cc1ccc(N(CC2CO2)S(=O)(=O)c2ccc(C)cc2)cc1 (stereo unspecified) | 1.4%
CCC(NC(=O)c1ccncc1)c1ccccc1 (stereo unspecified) | -4.1%
Cc1ccc2c(c1)C(=O)C(=O)N2Cc1ccccc1 | 79.4µM*
Cc1ccc(-n2nnnc2SCC(=O)Nc2c(C)n(C)n(-c3ccccc3)c2=O)cc1 | -8.0%
CCCn1nnc(NC(=S)NC(=O)c2ccccc2OC)n1 | -13.8%
CCCCCCC(=O)NNC(=O)c1c(O)c2ccccc2n(CCC)c1=O | -13.4%
O=C(C(Cl)Cl)N1c2ccccc2OCC1c1ccccc1 (stereo unspecified) | 0.7%
CC(=O)CSc1nnc(-c2ccc(S(=O)(=O)N3CCOCC3)cc2)n1C | -18.2%
CCOc1ccc(C(C)=O)cc1CC(C(N)=O)C(N)=O | 14.4%
Cn1ncc(Cl)c1C(=O)N1CCN(S(=O)(=O)c2ccc(Cl)s2)CC1 | -22.9%
COCCN(C(=O)c1csnn1)C(C(=O)NC1CCCC1)c1ccccc1F (stereo unspecified) | 21.3%
CC(=O)N[C@H](CS)C(=O)O | 5.7%

Following part.
canonical_smiles | VDR inhibitor
COc1cc([N+](=O)[O-])cc(CN2CCCCC2)c1O | -1.3%
O=S(=O)(Nc1cccc(-c2ccc(N3CCCCCC3)nn2)c1)c1cccc(F)c1 | 8.3%&6.3%
Cc1nc2ccccc2c(=O)n1CCc1ccc(O)cc1 | 2.5%
Cc1cc2oc(=O)cc(CN3CCCc4ccccc43)c2cc1C | -3.1%
COCc1cc(C)nc(Nc2ccccc2OC)c1C#N | -11.9%
COc1cc2c(cc1OC)CN(C(=O)c1cc3ccccc3oc1=O)CC2 | 2.1%
COc1cccc(/C=N/NC(=O)c2cc(-c3ccccn3)nc3ccccc23)c1O | -14.5%
Cc1cccc(NC(=O)CSc2nc(-c3ccccc3)cc(=O)[nH]2)c1C | -4.4%
COC(=O)c1ccc(CSc2nnc(-c3ccncc3)o2)cc1 | 27.6%
COc1cc(OC)cc(C(=O)NCCC(c2ccccc2)c2ccccc2)c1 | -13.4%
CC(C)Sc1cc(N2CCCC2)nc(-c2ccc(F)cc2)n1 | -16.0%
CCc1c(C)sc(NC(=O)C2CC2c2ccccc2)c1C(N)=O (stereo unspecified) | -8.3%
CC(C)CCCC(C)CCCC(C)CCCCC(C)CCCC(C)CCCC(C)C (stereo unspecified) | -4.6%
CCn1c2ccc(C)cc2c2nnc(NN)nc21 | -14.7%
CCCn1nnnc1NC(=O)c1cccs1 | -13.6%
C=C1CCN(C(C)C(=O)OC)S(=O)(=O)c2ccccc21 (stereo unspecified) | 0.0%&-7.3%
Cc1ccc(C)c2[nH]c(=O)c(CN(CCN3CCCC3)C(=O)Nc3cccc(Cl)c3)cc12 | 19.9%
CCNC(=O)c1ccc(C23CC4CC(CC(C4)C2)C3)o1 | 23.2%
Cc1ccc(SCCC(=O)Nc2cc(C)on2)cc1 | 7.7%
Cc1cnc(C(=O)OC(C)C(=O)Nc2cccc3ccccc23)cn1 (stereo unspecified) | -1.5%
CN(C(=O)COC(=O)c1ccccc1NCCO)C1CCS(=O)(=O)C1 (stereo unspecified) | -14.1%
CCCCN1C(=O)CN(C2CCCCCC2)C(=O)C1c1ccc(OC(C)C)c(OC)c1 (stereo unspecified) | 2.0%
Cc1cc(C(=O)NCCc2ccc(Cl)cc2)no1 | -10.7%
COc1ccccc1NC(=O)Cc1nnc(SCC(=O)Nc2nccs2)n1C | -5.5%
CCOc1ccccc1CN1CCNC(=O)C1CC(=O)NCc1ccccn1 (stereo unspecified) | 15.2%
O=C(c1ccncc1)N1CCC2(CC1)CCN(c1cccc(-c3ccccc3)c1)CC2 | u
CCn1c(SCC(=O)Nc2cccc(C(C)=O)c2)nnc1C(C)C | -1.8%
Cc1c(Br)c(=O)oc2c(C)c(O)ccc12 | 0.8%
O=C1CN(C(=O)COC(=O)CNS(=O)(=O)/C=C/c2ccccc2)c2ccccc2N1 | -15.9%
C[C@H](NC(=O)c1ccco1)C(=O)Nc1ccc2c(c1)OCO2 | -5.7%
O=C(CN1CCN(Cc2ccc(F)cc2Cl)CC1)NCc1ccccc1 | 0.6%
COc1ccc([N+](=O)[O-])cc1NC(=O)c1ccc(N2C(=O)CCC2=O)cc1 | -12.9%
CCOc1ccc(NC(=O)c2cc3ccccc3cc2O)cc1 | -16.8%
COc1ccc(NC(=O)NCc2ccccc2F)cc1OC | -8.2%
CCOC(=O)N1CCC(NCCNC(=O)c2cccs2)CC1 | -12.9%
CCOC(=O)C1(CCCc2ccccc2)CCN(C(=O)c2ocnc2C)CC1 | -0.1%
COCCN(Cc1ccccc1)C(=S)Nc1ccc(OC(F)F)cc1 | u
Cc1cc(-c2nc(C)c(-c3nnc(SCC(=O)Nc4cc(Cl)cc(Cl)c4)n3C)s2)no1 | 5.5%
c1cnc2c(Oc3ncnc4sccc34)cccc2c1 | -8.8%
O=C(CCCCCn1c(=S)[nH]c2ccc(N3CCOCC3)cc2c1=O)NCc1ccc(Cl)cc1 | -11.8%
Cn1c(=O)oc2cc(S(=O)(=O)CCC(=O)NCc3ccc(Cl)cc3)ccc21 | 16.6%
COc1cccc(NC(=S)Nc2cc(C)cc(C)n2)c1 | -3.6%
COc1ccc(-c2ccc(=O)n(Cc3cccc([N+](=O)[O-])c3)n2)cc1 | -11.0%
COCCn1c(C)cc(C(=O)CN2C(=O)NC3(CCCCCC3)C2=O)c1C | -5.7%
COc1ccc(OCC(=O)Nc2ccc3c(c2)nc(CCNC(=O)c2ccco2)n3C)cc1 | -7.9%
CCc1ccc2c(c1)C(C)=CC(C)(C)N2 | 8.7%
CCOc1cc(-c2nnc(SCC(=O)NC3CCCCC3)nc2-c2ccc(OC)c(OCC)c2)ccc1OC | 15.8%
NN1C(=O)NC(c2ccccc2)(c2ccccc2)C1=O | -9.5%
Cc1sc(-c2ccncc2)nc1OC(=O)c1ccccc1 | 0.9%
COc1ccc(C2C3=C(CCCC3=O)Nc3nc(SCc4ccc(C(=O)O)cc4)nn32)cc1OC (stereo unspecified) | 1.6%

Next structures.
canonical_smiles | VDR inhibitor
CCC(=O)Nc1cccc(NC(=S)NC(=O)c2cc3ccccc3o2)c1 | -29.8%
CCCn1c(O)c(CN2CCCC(C)C2)c(C)c(C#N)c1=O (stereo unspecified) | u
O=C(NCCN1CCN(c2ccccc2)CC1)C1(S(=O)(=O)c2ccc(Cl)cc2)CC1 | 10.9%
CCOc1ccc(NC2OC(C)C(O)C(O)C2O)c([N+](=O)[O-])c1 (stereo unspecified) | 10.7%
C/C(=N\NC(=O)c1ccncc1)c1ccc(N(C)C)cc1 | 7.3%
CCOC(=O)c1c(NC(=O)CSc2nnc(-c3cccnc3)o2)sc2c1CCC2 | 3.5%
Nc1c2c(nn1-c1ccccc1)CCC2 | 5.1%
CC(C)Nc1nnc(SCC(=O)N2CCN(C(=O)c3ccco3)CC2)s1 | u
CCC1(CC)C(=O)C2=C3C1[C@H](C(=O)OC)CC(C(=O)OC)C[C@H]3[C@H]1C(=O)N(c3ccccc3)C(=O)[C@H]1[C@H]2C (stereo partly specified) | 4.9%&-15.6%
C/C(=N\NC(=O)c1cc2ccccc2cc1O)c1cccs1 | 8.2%
C/C(=N\NC(=O)c1ccccc1OCc1ccc(F)cc1)c1ccccn1 | -0.4%
O=C1NC(=Nc2ccccc2)c2ccc([N+](=O)[O-])cc21 | -7.4%
CCc1nnc(NC(=O)C2CCCO2)s1 (stereo unspecified) | 14.0%
COc1ccccc1/C=C1\SC(=S)N(CCC(=O)Nc2cccc(O)c2)C1=O | -20.7%
CCCCC1=CC2=C(c3ccco3)C(=O)C(C)(OC(=O)c3ccc(OC)cc3)C(=O)C2=CN1CCCOC(C)C (stereo unspecified) | u
COc1ccc(-n2nc(C(=O)NCCCN3CCOCC3)c3ccccc3c2=O)c(OC)c1 | u
